# 2A firefly: lowers the firefly signal of an FMDV 2A StopGo reporter; 0.23% of 120,000 active; HEK cells with a luciferase reporter of 2A StopGo recoding; AID 1745856; Potency, µM (top dose mostly 57.5 µM), inactives show at the top dose signal change, negative = less light; active = well fitted falling curve with a large enough effect; inconclusive = small, poorly fitted or top-dose-only effect; inactive = no such curve, though single readings can be large or run the other way; further: nearly all actives have a fitted effect of over 60% in size; overnight with compound
# StopGo RLuc: FMDV 2A StopGo reporter, Renilla signal. 0.32% of 120,000 active. HEK cells with a luciferase reporter of 2A StopGo recoding. Potency, µM (top dose mostly 57.5 µM), for inactives: top-dose signal change, negative = less light; active means well fitted falling curve with a large enough effect; inconclusive means small, poorly fitted or top-dose-only effect; inactive means no such curve, though single readings can be large or run the other way; further: nearly all actives have a fitted effect of over 55% in size; overnight with compound
# Active calls of the source: *; ? = inconclusive; & = joins results of further samples; [ ] = dose if it differs, or a comment. On the % scale 0 is the no-effect control and ±100 the full control effect; potency means the concentration at half of the fitted maximal effect. This is a subset, so the mix of outcomes need not match the whole.
SMILES,2A firefly,StopGo RLuc
Fc1ccc(CN2CCCN(c3nnnn3-c3ccccc3)CC2)cc1,-5%,1%
CNc1nc2c(c(=O)n(C)c(=O)n2C)n1CC(O)COc1ccc(C)cc1 (stereo not given),?,11µM*
CCOC(=O)c1c(S(=O)(=O)NCC(=O)N2CCOCC2)c(C)n(C)c1C,5%,85%[activator]
Cn1c(=O)c2c(nc(NCc3ccc4c(c3)OCO4)n2Cc2cccc(Br)c2)n(C)c1=O,1%,-2%
COc1ccc2nc(Nc3nc(C)cc(C)n3)nc(C)c2c1,23%,-2%
N#Cc1nc(-c2ccc(COc3ccc(Cl)cc3)o2)oc1N1CCC(C(N)=O)CC1,-14%,25%
Cc1oc(-c2nc(C#N)c(NCCN(C)C)o2)cc1S(=O)(=O)N(C)C,-23%,-25%
O=C(Nc1nc(-c2ccc(Cl)s2)cs1)C1CCN(C(=O)C2CC2)CC1,?,?

# In another format: entries from further up
CNc1nc2c(c(=O)n(C)c(=O)n2C)n1CC(O)COc1ccc(C)cc1 (stereo not given)
  2A firefly: ?
  StopGo RLuc: 11µM*
CCOC(=O)c1c(S(=O)(=O)NCC(=O)N2CCOCC2)c(C)n(C)c1C
  2A firefly: 5%
  StopGo RLuc: 85%[activator]
Cn1c(=O)c2c(nc(NCc3ccc4c(c3)OCO4)n2Cc2cccc(Br)c2)n(C)c1=O
  2A firefly: 1%
  StopGo RLuc: -2%
COc1ccc2nc(Nc3nc(C)cc(C)n3)nc(C)c2c1
  2A firefly: 23%
  StopGo RLuc: -2%

# Continued:
SMILES,2A firefly,StopGo RLuc
COc1cccc(-n2cnc3cc(C(=O)NC4CCCC4)ccc3c2=O)c1,5%,-8%
CCCCn1nc(C(=O)N2CCC(C(=O)Nc3ccc4c(c3)OCO4)CC2)c2ccccc2c1=O,0%,107%[activator]
CC(=O)NCc1ccc(C(=O)OC/C=C/c2ccccc2)cc1,0%,3%
O=c1c2c(-c3cccs3)csc2nc(CN2CCOCC2)n1CCOc1ccccc1F,-8%,-5%
COc1ccc(/C=C/C(=O)O)cc1Br,-2%,-5%
Cc1ccc(Cl)cc1N1CCN(S(=O)(=O)c2ccc(-c3cnc(C4CC4)o3)cc2)CC1,20%,35%[activator]
Cc1[nH]c2ccc(C(=O)Nc3ccc(-c4nccs4)cc3)cc2c1C,8%,-18%
CC(C(=O)N1CCc2ccccc2C1)N(C)Cc1c(F)cccc1Cl (stereo not given),14%,45%[activator]
CCOCCCNC(=O)C(c1ccc(OC)cc1)N(Cc1ccc2c(c1)OCO2)C(=O)c1ccc(NC(C)=O)cc1 (stereo not given),-14%,15%
COc1ccc(NC(C)(C)c2nnnn2-c2c(C)cccc2C)cc1OC,-27%,-24%
O=C(CN1CCN(c2nc(C(F)(F)F)nc3ccccc23)CC1)N1CCCCCC1,-19%,-19%
COc1ccc(F)cc1S(=O)(=O)NCCc1c(C)[nH]c2c(Cl)cccc12,-8%,208%[activator]
Cc1oc(-c2ccccc2F)nc1CSCC(=O)NCCc1ccccc1,?,-40%
COc1ccc(S(=O)(=O)c2cn(CC(=O)Nc3cc(C)ccc3C)c3ccccc3c2=O)cc1,-6%,-9%
COc1cccc(Cc2nc3ccccc3nc2SCC(=O)Nc2cc(OC)ccc2OC)c1,-6%&-22%,-4%&-10%
CC(=O)Nc1cc(-c2nc3ccccc3s2)ccc1C,173%&160%[activator],26%&12%
CCOC(=O)c1c(NC(=O)c2cc3nc(-c4ccccc4)cc(C(F)(F)F)n3n2)sc2c1CCC(C)C2 (stereo not given),59%[activator],21%
CCCC(C)NC(=O)c1ccccc1-c1ncc(-c2ccc(F)cc2)o1 (stereo not given),60%[activator],9%
Cc1cc(NC(=O)C2CCCN(S(=O)(=O)c3cccc4nonc34)C2)ccc1Br (stereo not given),-19%,-1%
COc1ccc(S(=O)(=O)N(CC(=O)Nc2ccc(OC)cc2OC)c2ccc(Cl)cc2)cc1,-13%,54%[activator]
COc1cccc2cc(C(=O)NCc3ccc(C)cc3)c(=O)oc12,15%,-4%
CCOCCCNc1nc2c(c(=O)n(C)c(=O)n2C)n1Cc1ccccc1Cl,-11%,-18%
CCn1cc(C(=O)N2CCN(c3cccc(Cl)c3)CC2)c(=O)c2cc(S(=O)(=O)N3CCC(C)CC3)ccc21,-24%,10%
CCOC(=O)c1cc(C)n(CC2CCC(C(=O)Nc3ccc(C)c(F)c3)CC2)c1C (stereo not given),-7%,-6%

# In another format: 2 of the compounds above
SMILES: COc1cccc2cc(C(=O)NCc3ccc(C)cc3)c(=O)oc12
- 2A firefly = 15%
- StopGo RLuc = -4%

SMILES: COc1ccc(S(=O)(=O)N(CC(=O)Nc2ccc(OC)cc2OC)c2ccc(Cl)cc2)cc1
- 2A firefly = -13%
- StopGo RLuc = 54%[activator]

# Continued:
SMILES,2A firefly,StopGo RLuc
Cc1nc2cc(NC(=O)C3CC(=O)N(CC4CC4)C3)ccc2o1 (stereo not given),17%,-9%
CCN(CCCNC(=O)CSc1cc(=O)n(CC)c2ccccc12)c1ccccc1,-14%,26%
COc1ccc(N(CC(=O)N2CCCCC2)S(=O)(=O)c2ccc(OC)c(OC)c2)cc1,-13%,101%[activator]
COc1ccc(Nc2sc(C(=O)c3ccccc3)c(N)c2C(=O)Nc2cc(C)ccc2C)c(OC)c1,?,?
O=C(NCCc1ccccc1)C1CCC(CNS(=O)(=O)c2ccccc2)CC1 (stereo not given),15%,6%
CCn1cc(/C=C(\NC(=O)c2ccccc2Cl)C(=O)NCCCn2ccnc2)c2ccccc21,7%,58%[activator]
CC(C)(C)C1C/C(=C/c2cccs2)c2nc3ccccc3c(C(=O)O)c2C1 (stereo not given),23%,-7%
COc1cccc(Cn2c(Oc3cc(C)cc(C)c3)nc3c2c(=O)n(C)c(=O)n3C)c1,-18%,-2%
Nc1cccc(-c2ccc(Cl)c(Cl)c2)c1,0%,6%
Fc1ccc(-n2cc(-c3ccccc3)c3c(NC4CCCCC4)ncnc32)cc1,-18%,2%
O=C(CSc1nc2c([nH]c3ccccc32)c(=O)n1-c1ccccc1)N1CCCCCC1,-12%,25%
CCN(Cc1cn(Cc2ccccc2)nn1)S(=O)(=O)c1ccccc1Br,3%,0%
CC1CCCN(CCNC(=O)C2CCN(CC(F)(F)F)CC2)C1 (stereo not given),-16%,-4%
O=C(/C=C/N1CCC(CCCC2CCN(/C=C/C(=O)C(F)(F)F)CC2)CC1)C(F)(F)F,?,10µM*
O=C(N/N=C/c1cccs1)c1ccc(Cl)cc1Cl,251%[activator],79%[activator]
CCOC(=O)C(CC)N1CCN(Cc2ccc(F)cc2)C(=O)C1=O (stereo not given),-13%,-2%
O=C(O)CSc1nc2ccccc2nc1N1CCCCC1,-9%,-6%
Cc1ccc(C)c(NC(=O)N2CCC(N3CCN(Cc4ccccn4)C(=O)C3=O)CC2)c1,6%,1%
CC12CC[C@H]3[C@@H](CCC4(O)CC(O)CCC34/C=N/O)C1(O)CCC2C1=CC(=O)OC1 (stereo not given in full),1.4µM*,1.8µM*
COc1ccc(OC)c(NC(=O)CSCc2cc(=O)n3cc(C)ccc3n2)c1,-7%,-7%
COC(CNC(=O)C=C(C)C)c1ccccc1 (stereo not given),0%,6%
CCN(CC)S(=O)(=O)c1ccc2c(c1)N(CC(=O)Nc1c(C)cc(C)cc1C)C(=O)C1CCCN21 (stereo not given),-10%,2%
COc1cc2c(cc1OC)C(COc1ccccc1OC)N(C(=O)c1ccc(S(=O)(=O)N(C)C)cc1)CC2 (stereo not given),-12%,6%
O=C(OCC(=O)N1c2ccccc2Sc2ccccc21)c1ccc2c(c1)OCCO2,21%,9%
CCC(=O)N1c2ccc(S(=O)(=O)CCC(=O)N3CCN(c4cc(C)ccc4C)CC3)cc2CC1C (stereo not given),-4%,-5%
CC(NCc1cccc(C#N)c1)c1cccc(Br)c1 (stereo not given),-6%,-12%
CCN(CC)c1nn2c(=O)c(C(=O)NCc3cccc(C)c3)cnc2s1,-15%,-9%
COCC(C)NC(=O)CSc1cc(C)c2cccc(C)c2n1 (stereo not given),6%,6%
Cc1cc2oc(=O)cc(CN3CCN(CCO)CC3)c2cc1O,6%,-10%
Cc1ccc(NC(=O)c2nc(-c3ccncc3)no2)c(Cl)c1,100%[activator],-7%
Cc1ccccc1CC(=O)Nc1ccccc1SCc1ccsc1,9%,35%[activator]
Cc1cccc(Cn2c(N3CCc4ccccc4C3)nc3c2c(=O)[nH]c(=O)n3C)c1,2%,-2%
O=C(OCC(=O)C12CC3CC(CC(C3)C1)C2)c1c(F)cccc1F,19%,-4%
Cc1ccc(-c2cnc(CCC(=O)N3CCOCC3)o2)cc1C,163%[activator],-3%
COC(=O)C1=C(C)NC(=O)NC1c1cn(-c2ccccc2)nc1-c1ccc(OC)c(Br)c1 (stereo not given),39%[activator],40%[activator]
CCCCNC(=O)CN1CCN(c2ncc(NC(=O)c3ccc(Cl)cc3)cc2C(=O)O)CC1,-5%,-7%
COCCCNC(=O)CN1CCN(CC=C(C)C)CC1,5%,0%[1.06 µM]
Cc1ccc(-c2onc(C)c2C)cc1S(=O)(=O)N1CCOc2ccc(Cl)cc21,?,?
Cc1ccc(NC(=O)Cn2c(=O)oc3ccccc32)cc1Cl,2%,-5%
Cc1cccc(OCc2nc(CC(=O)Nc3ccc(Cl)cc3)cs2)c1,33%[activator],26%
CC1CCCCN1Cc1nc2c(c(=O)n(C)c(=O)n2C)n1Cc1ccc(Br)cc1 (stereo not given),-13%,-5%
CCOC(=O)c1ccc(NC(=O)CC2SC(c3cc4ccccc4oc3=O)=NC2=O)cc1 (stereo not given),-11%,?
CCOc1ccc(CCNC(=O)CCc2c(C)nc3c(c(C)nn3-c3ccc(C)c(C)c3)c2C)cc1,-20%,-10%
COc1ccc(-c2nc3sc(CCNC(=O)Cc4ccc(F)cc4)c(C)n3n2)cc1,80%[activator],1%
COc1ccc(-c2nc(C(=O)N3CCN(Cc4cccc(Cl)c4)CC3)cs2)cc1OC,-20%,-18%
Cc1cccc(-c2nc(CS(=O)CC(=O)NCc3ccc(F)cc3)c(C)o2)c1 (stereo not given),-2%,45%[activator]
O=S(Cc1ccc(Cl)cc1)Cc1cccc(C(F)(F)F)c1 (stereo not given),-13%,-6%
CCOC(=O)c1sc(Nc2ccccc2)nc1C,195%[activator],-1%
COc1ccc(OC)c(NC(=O)[C@H](Cc2ccccc2)N2Cc3ccccc3C2=O)c1,-11%,45%[activator]
O=[N+]([O-])c1ccc(-n2ccc3ccccc32)cc1,0%,6%
COc1cc(OC)c(C(=O)CCCN2CCCC2)c(OC)c1,-15%,-13%
COc1ccccc1NC(=O)c1cc2ccc3cccnc3c2[nH]1,100%[activator],13%
COc1cc(C(=O)N(C)Cc2nc3ccccc3c(=O)[nH]2)cc(Cl)c1OCC(N)=O,11%,11%
O=C(c1cc2ccccc2oc1=O)N(Cc1cccs1)Cc1cccs1,16%,0%
O=C(Cc1csc(-c2ccc(F)cc2)n1)Nc1ccnn1Cc1ccccc1Cl,?,-6%
CC(C)Nc1nc(-c2ccc3c(c2)CCCN3S(C)(=O)=O)cs1,220%[activator],49%[activator]

# (more compounds)
SMILES,2A firefly,StopGo RLuc
COCc1cccc(C(=O)NCc2ccco2)c1,35%[activator],4%
O=C(CCNC(=O)C1CCCC1)NC1(c2ccccc2)CCC1,15%,-3%
COc1ccc(NC(=O)CSC2=NC3(CCCCC3)Nc3ccccc32)cc1,19%,10%
CC(Sc1cc(F)ccc1F)C(N)=O (stereo not given),12%,9%
Cc1ccc2[nH]c(=O)c3cc(C(=O)NCc4ccc(F)cc4Cl)sc3c2c1,-1%,-5%
c1ccc(-c2nc(CSc3ccc4c(c3)OCCO4)cs2)cc1,0%,3%
Cc1ccc(-c2nnc3sc(-c4cccc(F)c4)nn3c2=O)cc1,41%[activator],11%
CC(C)CCOc1ccc(/C(CCC/C(=N\O)c2ccc(OCCC(C)C)cc2)=N/O)cc1,-21%,-24%
CC(C#N)OC(=O)c1ccc(-c2ccccc2Cl)o1 (stereo not given),31%[activator],-14%
Cc1cc2ccccc2n1CCNC(=O)c1ccc(F)cc1,94%[activator],2%
O=S(=O)(NCc1nc2cccnc2n1Cc1ccc(F)cc1)c1ccc2c(c1)CCCC2,-10%,174%[activator]
CCOc1ccc(NC(=O)CSc2cc(C)c3ccccc3n2)cc1,-14%,-13%
CN(Cc1cccc(C#N)c1)C(=O)C1CCOCC1,5%,2%
COc1cccc(CNC(=O)Nc2cccc(-c3nnc(Cc4ccc5c(c4)OCO5)o3)c2)c1,8%,16%
CCNC(=O)NC(=O)CN1CCCC(C)C1 (stereo not given),-6%,-9%
Cc1ccc(NS(=O)(=O)c2cc(C)c(C(=O)O)s2)cc1C,8%,55%[activator]
Cc1nc(NC(=O)c2c(-c3ccccc3)c(-c3ccccc3)nn(C)c2=O)sc1C,9%,41%[activator]
COC(=O)C1=C(C)N(C(C)C)C(=O)C1(NC(=O)C1CC1)C(F)(F)F (stereo not given),-6%,-6%
NC(=O)c1nc(Nc2ccccc2)sc1NC(=O)c1ccccc1Br,-5%,-12%
CC(=O)Nc1ccc(C(=O)NC(CC(=O)O)c2ccc(C(C)(C)C)cc2)cc1 (stereo not given),8%,-3%
CN[C@@H](C)[C@H](O)c1ccccc1,-7%,3%
CN(C)c1ccc(C(=O)Nc2ccc(-c3nc4ccccc4o3)cc2)cc1,85%[activator],6%
